# Screens (PubChem)
# STK33 kinase inh: inhibitors of purified STK33 kinase, primary screen, biochemical, ADP-Glo luminescence, homogeneous, cell-free; inhibition, % at 10 µM; MBP phosphorylation; AID 2661, 2010; 0.073% of 320,000 active;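 active = inhibition at or above 25%, using the most active replicate where run in duplicate; inactive = inhibition below 25%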
# Target sequence (Q9BYT3 whole entry, looked up): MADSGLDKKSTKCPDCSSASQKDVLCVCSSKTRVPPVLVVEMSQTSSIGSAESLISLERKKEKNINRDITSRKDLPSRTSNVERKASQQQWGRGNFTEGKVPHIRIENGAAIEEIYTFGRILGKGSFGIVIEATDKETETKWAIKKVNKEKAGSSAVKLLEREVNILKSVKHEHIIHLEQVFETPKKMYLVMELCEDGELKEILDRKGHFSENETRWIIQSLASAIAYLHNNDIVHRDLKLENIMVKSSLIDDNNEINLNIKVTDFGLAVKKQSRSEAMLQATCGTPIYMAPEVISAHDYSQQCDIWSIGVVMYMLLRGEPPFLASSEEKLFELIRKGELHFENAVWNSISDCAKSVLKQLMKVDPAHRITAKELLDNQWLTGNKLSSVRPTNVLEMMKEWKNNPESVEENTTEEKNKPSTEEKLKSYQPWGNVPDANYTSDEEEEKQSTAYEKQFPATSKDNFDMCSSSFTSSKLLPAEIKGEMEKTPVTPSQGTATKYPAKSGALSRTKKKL
# * marks the source's active call; other numbers are inactive results. The list is partial, and most or all hits are left out here.
SMILES,STK33 kinase inh
Cc1ccccc1NC(=O)c1sc2nc[nH]c(=O)c2c1C,1.8
CC(C)n1cc(CN2CCC(C(=O)Nc3cccc(-c4cccc(Cl)c4)c3)CC2)cn1,-1.3
O=C(COc1ccc(S(=O)(=O)N2CCOCC2)cc1)NCCCn1ccnc1,-2.7
Cc1ccccc1OCC(O)CN1CCN(CCN2C(=O)c3cccc4cccc(c34)C2=O)CC1 (stereo not given),9.7
O=C(O)c1c(Cl)c(Cl)c(Cl)c(Cl)c1C(=O)N1CCCC1,-1.2
CCCCc1ncc(CN2CCN(Cc3ccc(C)cc3)C(CCO)C2)[nH]1 (stereo not given),0.2
CC(=O)C1=C(O)C(=O)N(c2ccc(O)cc2)C1c1ccccc1[N+](=O)[O-] (stereo not given),3.8
CCOC(=O)c1sc2nc(C)nc(NCc3ccc(F)cc3)c2c1C,-3.8
CC1=C(C(=O)Nc2ccccc2C)C(c2ccc(C)o2)NC(=S)N1 (stereo not given),0.4
C(=N\Nc1ccccn1)/c1cccnc1,-0.9
Cc1ccccc1Cn1nc(C)c(NC(=O)c2cc(CC(C)C)on2)c1C,-0.6
CC1CCCC(C)N1/N=C/c1ccc(C#N)cc1 (stereo not given),-1.3
O=C(CCCN1C(=O)/C(=C/c2cccc(Br)c2)SC1=S)N1CCOCC1,-0.6
CCOC(=O)C1CCN(C(=O)Nc2ccc3nc(-c4ccco4)c(-c4ccco4)nc3c2)CC1,1.3
Cc1cc[n+](-c2[nH]c(=O)sc2/C=N/N=C(\[O-])c2ccncc2)cc1C,5.2
CCNC(=S)N/N=C(\C)c1ccc(N2CCOCC2)cc1,-1.7
Cc1ccc(NC(=O)c2ccc(Cl)c(N3C(=O)C=CC3=O)c2)cc1,-0.7
Cc1cc2occ(CC(=O)N(C)CC(=O)Nc3ccc(F)cc3)c2cc1C,-1.8
COc1ccc(N2C(=O)C3[C@@H](C2=O)C2(Cl)C(Cl)=C(Cl)C3(Cl)C2(OC)OC)cc1 (stereo not given in full),-1.8
N#Cc1ccccc1NC(=O)COc1c(Br)cc(Br)c2cccnc12,0.3
COc1ccc(C2(c3ccc(OC)cc3)NC(=O)N(CC(=O)N(C)C)C2=O)cc1,-1.0
COc1ccc(N2CCN(C(CNC(=O)C(=O)NCc3ccc4c(c3)OCO4)c3ccco3)CC2)cc1 (stereo not given),-0.5
CC(C)NC(=O)c1cc(=O)n(C)c(=O)n1C,-0.2
CCOc1cc(CNc2ccc(N3CCCC3)cc2)cc(Cl)c1OC,-1.2
Cc1ccc(C(=O)NCCNc2ncc(C(F)(F)F)cc2Cl)cc1[N+](=O)[O-],-0.4
Cc1cccc(NC(=O)CCc2c(C)nc3ncnn3c2C)n1,-1.9
Cc1ccc(CCNC(=O)NC(C)(C)C)cc1,-1.3
CC(C)c1ccc(OCC(=O)NNC(=S)NC(=O)c2cccs2)c(Br)c1,-0.1
CCCCNC(=O)c1onc(CSc2ccccc2)c1C(=O)NCCCC,0.1
C=CCNc1nnc(Cc2ccc(C(C)C)cc2)c(=O)[nH]1,-1.2
O=C(CSc1ncnc2c1cnn2Cc1ccccc1)Nc1ccc2c(c1)OCCO2,-0.5
CC(=O)N(NC(N)=O)C(C)CC(=O)C1C(C)C=CCC1(C)C (stereo not given),-0.9
O=C1c2ccccc2S(=O)(=O)c2cc(C(=O)N(c3ccccn3)c3ccccn3)ccc21,-0.3
CCN(C(=O)COC(=O)c1ccc[nH]c1=O)c1cccc2ccccc12,-0.5
CCCCC(=O)Nc1ccccc1C(C)C,1.4
O=C(Nc1nccs1)c1ccc(S(=O)(=O)NCc2cccs2)cc1,3.9
COC(=O)C1CCN(C(=O)C(C)Oc2ccc(Cl)cc2Cl)CC1 (stereo not given),-1.3
Cc1ccccc1Nc1c(-c2cccnc2)nc2ccc(Br)cn12,0.6
CCc1c(C)nc2ncnn2c1N1CCC(C(=O)NCc2ccc3c(c2)OCO3)CC1,-1.7
Nc1ncc([N+](=O)[O-])cc1S(=O)(=O)c1ccccc1,-0.3
O=C(CCCN1C(=O)CCC1=O)Nc1ccc(Br)cc1F,0.2
Cc1cc(NC(=O)CCC(=O)N(CC(=O)NCC2CCCO2)c2ccccc2C)no1 (stereo not given),-0.1
O=C(/C=C/NNC(=O)c1ccccc1)c1ccc(Br)cc1,-1.5
Cn1cc(CCC(=O)N2CCCC(C(=O)c3ccc(C(C)(C)C)cc3)C2)cn1 (stereo not given),-0.9
CCOC(=O)N1CCN(S(=O)(=O)c2ccc(C(=O)Nc3nnc(C4CC4)o3)cc2)CC1,1.3
O=S(=O)(NC(=NCc1ccccc1)c1ccccc1)c1ccccc1,0.3
CC(=O)c1cccc(NC(=O)CC2S/C(=N/N=C/c3ccccc3)NC2=O)c1 (stereo not given),-1.0
COC(=O)c1cnn(-c2ccccc2)c1/C=N/NC(=S)Nc1ccc(Cl)cc1,0.2
COc1ccc(OCC(O)CN2C(=O)c3ccccc3S2(=O)=O)cc1 (stereo not given),-0.5
Cc1nc(C)n(CC(=O)N2CCCC(C(=O)c3ccc(Cl)cc3C)C2)n1 (stereo not given),-1.5
CC(C)(C)c1ccc(C(=O)Nc2ccc(C(=O)NCc3cccnc3)cc2)cc1,1.7
CCC(CO)NCCNC(CC)CO (stereo not given),-0.7
CC(=O)Nc1nc2c(C)c(Cl)ccc2s1,1.4
O=[N+]([O-])c1ccc(N2CCN(c3ccc(O)cc3)CC2)c(Cl)c1,-0.2
Cc1c(NS(=O)(=O)c2ccc(N3CCCCC3)c([N+](=O)[O-])c2)c(=O)n(-c2ccccc2)n1C,0.8
Cc1c(NS(=O)(=O)c2cc(C(=O)NCC3CCCO3)cc(Cl)c2Cl)c(=O)n(-c2ccccc2)n1C (stereo not given),-0.3
COc1ccc(NC(=O)CN(C)C(=O)C2CC(=O)N(Cc3ccc(C)cc3)C2)cc1 (stereo not given),1.5
Cn1nnnc1SCc1ccc(C(=O)Nc2nccs2)cc1,7.1
Cc1cccc(C)c1NC(=S)N(Cc1cccnc1)Cc1ccccc1Cl,-2.0
CCC(C)CCN1CCN=C1Nc1ccccc1 (stereo not given),-0.3
# The list goes on:
SMILES,STK33 kinase inh
COC(=O)c1ccccc1NC(=O)c1ccco1,2.7
O=C1O[C@@H]([C@H](O)CO)C(O)=C1O,0.5
CC(C)(C)CN1CCNC(=O)C1CC(=O)N1CCN(c2ccccc2)CC1 (stereo not given),-1.2
O=C(Nc1cccc(NC(=O)c2cccs2)c1)c1ccc2c(c1)OCCO2,4.9
CCCCNC(=O)CSc1nc2ccccc2c(=O)n1CC1COc2ccccc2O1 (stereo not given),-1.5
Cc1ccc(OCC(=O)Nc2ccc3c(c2)nc(CCN2CCCCC2)n3C)cc1,-0.1
Cc1cc(C(=O)N/N=C2\CC(=O)CC(C)(C)C2)n[nH]1,0.5
Cc1ccc(-n2c(Cc3cccs3)nnc2SCC(N)=O)cc1,-0.1
CC1CCCCC1NCC(=O)Nc1ccccc1-c1ccccc1 (stereo not given),-2.5
O=C(CSc1nnc(Cn2c(=O)sc3ccccc32)n1-c1ccccc1)NCc1ccco1,0.9
COc1ccc2nc(-c3ccccc3)cc(OC)c2c1,0.2
CCCn1c(NC(=O)c2ccccc2Br)nc2ccccc21,0.0

# 20 of the compounds above, with values ahead of the structure.
STK33 kinase inh	mol
0.2	O=C(CCCN1C(=O)CCC1=O)Nc1ccc(Br)cc1F
-0.1	Cc1cc(NC(=O)CCC(=O)N(CC(=O)NCC2CCCO2)c2ccccc2C)no1 (stereo not given)
-1.5	O=C(/C=C/NNC(=O)c1ccccc1)c1ccc(Br)cc1
-0.9	Cn1cc(CCC(=O)N2CCCC(C(=O)c3ccc(C(C)(C)C)cc3)C2)cn1 (stereo not given)
1.3	CCOC(=O)N1CCN(S(=O)(=O)c2ccc(C(=O)Nc3nnc(C4CC4)o3)cc2)CC1
0.3	O=S(=O)(NC(=NCc1ccccc1)c1ccccc1)c1ccccc1
-1.0	CC(=O)c1cccc(NC(=O)CC2S/C(=N/N=C/c3ccccc3)NC2=O)c1 (stereo not given)
0.2	COC(=O)c1cnn(-c2ccccc2)c1/C=N/NC(=S)Nc1ccc(Cl)cc1
-0.5	COc1ccc(OCC(O)CN2C(=O)c3ccccc3S2(=O)=O)cc1 (stereo not given)
-1.5	Cc1nc(C)n(CC(=O)N2CCCC(C(=O)c3ccc(Cl)cc3C)C2)n1 (stereo not given)
1.7	CC(C)(C)c1ccc(C(=O)Nc2ccc(C(=O)NCc3cccnc3)cc2)cc1
-0.7	CCC(CO)NCCNC(CC)CO (stereo not given)
1.4	CC(=O)Nc1nc2c(C)c(Cl)ccc2s1
-0.2	O=[N+]([O-])c1ccc(N2CCN(c3ccc(O)cc3)CC2)c(Cl)c1
0.8	Cc1c(NS(=O)(=O)c2ccc(N3CCCCC3)c([N+](=O)[O-])c2)c(=O)n(-c2ccccc2)n1C
-0.3	Cc1c(NS(=O)(=O)c2cc(C(=O)NCC3CCCO3)cc(Cl)c2Cl)c(=O)n(-c2ccccc2)n1C (stereo not given)
1.5	COc1ccc(NC(=O)CN(C)C(=O)C2CC(=O)N(Cc3ccc(C)cc3)C2)cc1 (stereo not given)
7.1	Cn1nnnc1SCc1ccc(C(=O)Nc2nccs2)cc1
-2.0	Cc1cccc(C)c1NC(=S)N(Cc1cccnc1)Cc1ccccc1Cl
-0.3	CCC(C)CCN1CCN=C1Nc1ccccc1 (stereo not given)

# Next results:
SMILES,STK33 kinase inh
CN(Cc1nc2ccccc2c(=O)[nH]1)c1ccccc1,-0.4
O=C1c2cccnc2C(=O)N1Cc1ccc(S(=O)(=O)NCc2ccco2)s1,-1.7
Cc1cc(C)n(-c2nc(SCC(=O)O)c3c4c(sc3n2)COC(C)(C)C4)n1,-3.5
O=C(Cc1cccc2ccccc12)Nc1ccc(Br)cc1C(=O)O,-1.0
O=C(c1scc2c1CCCC2)N1CCCCC1,-1.0
C=CCN(C(=O)c1csnn1)C(C(=O)NC1CCCC1)c1ccccc1 (stereo not given),-0.7
CSc1nc2c(c(=O)n1-c1ccc(F)cc1)SCC2,-0.7
COc1cccc(/C=N/NC(=O)C(=O)Nc2ccccc2OC(F)(F)C(F)F)c1,1.3
Cc1ccc(N2C(=O)[C@@H]3[C@H](C2=O)[C@H]2C=CC=NN2[C@@H]3C(=O)Nc2ccc(Cl)cc2)cc1,-1.5
Brc1ccc(-c2nc3ncccn3c2Nc2ccc3c(c2)OCCO3)o1,-1.3
N#Cc1c(-c2ccccc2)cc(-c2ccccc2)nc1SCc1nnc(-c2ccccc2)o1,0.3
Nc1nc2c(ncn2CCC(CO)CO)c(=O)[nH]1,-1.9
CCc1c(C)nc(SCc2cccnc2)[nH]c1=O,0.5
CC(C)(C)S(=O)(=O)c1c(C(=O)O)cccc1C(=O)O,-0.9
CC(C)CCn1cnc2c(oc3nc4c(cc32)CCCC4)c1=O,0.1
COCCN(C(=O)CCC(=O)Nc1ccccn1)C(C(=O)NCCC(C)C)c1ccc(C)cc1 (stereo not given),-1.0
COc1ccc(C(CCNC(C)c2ccccc2)C(C)C)cc1 (stereo not given),-1.3
COc1ccccc1C(=O)NCCCNc1ccc([N+](=O)[O-])cc1,-0.6
NC(=O)c1ccccc1NC(=O)/C=C/c1ccc(Cl)cc1,1.0
CC(NC(=O)CCCCCCN1C(=O)c2ccccc2C1=O)c1ccc2c(c1)CCCC2 (stereo not given),-0.7
O=C(CSc1ncccc1C(=O)O)c1cccc(C(F)(F)F)c1,-0.7
O=C(CN1C(=O)NC2(CCCCC2)C1=O)Oc1ccc2ccc(=O)oc2c1,-1.3
O=C1NC(=S)S/C1=C\c1cc2ccccc2nc1N1CCCCC1,-1.2
CCC(NC(=O)c1ccccc1NC(=O)c1ccccc1)C(=O)O (stereo not given),-2.4
Cc1ccccc1N1C(=O)CC2(CCCC2)CC1=O,-1.4
Cn1ncc2c(Nc3cc(Cl)cc(Cl)c3)ncnc21,-0.4
O=C(Nc1cccnc1)c1cc(-c2cccc(Cl)c2)on1,0.8
CC1CCCC(C)N1S(=O)(=O)c1ccc(S(=O)(=O)NCc2ccccc2)cc1 (stereo not given),-1.1
CCc1nnc(NC(=O)c2ccc(S(=O)(=O)N3CCCCC3C)cc2)s1 (stereo not given),-0.2
Cc1nn(-c2cc(Cl)ccc2N)c(=O)c2ccccc12,-3.1
CCC1CCCCN1CCCNC(=O)c1ccc2c(c1)NC(=O)CN2C (stereo not given),3.5
CCCc1cc(=O)n2[nH]c(-c3ccc(C)cc3)cc2n1,0.4
CCn1c(C)nc2cc(OC)ccc21,1.2
COc1ccc(CN2C(=O)/C(=C/c3ccncc3)SC2=S)cc1,-1.0
COCCOC(=O)C1=C(N)Oc2c(oc(CO)cc2=O)C1c1c(F)cccc1Cl (stereo not given),-0.2
CC(=O)N1CCN(CC(=O)Nc2cc(F)ccc2C)CC1,-1.5
NC(=O)c1ccc(Br)c(S(=O)(=O)N2CCCCC2)c1,0.8
COc1ccc(C(=O)C2CCCN(C(=O)c3cc(C(C)C)no3)C2)cc1F (stereo not given),-0.1
COc1cccc(-c2cc(-c3cccnc3)nc(N)c2C#N)c1,0.5
COc1cc(OC)cc(C(=O)OCC(=O)Nc2cccc(C(C)=O)c2)c1,-0.9
CCOc1ccccc1CN1CCC(O)CC1,0.0
O=C(Nc1ccn(-c2ccccc2)n1)c1ccc(Cl)cc1,-0.1
CC1CCCC(NC(=O)CNC(=O)c2cccs2)C1C (stereo not given),-0.8
COc1cc2nc(CN(C)Cc3ccc(C(C)(C)C)cc3)[nH]c(=O)c2cc1OC,2.6
Cc1cccc(N(C)S(=O)(=O)c2ccc3c(c2)NC(=O)CC(=O)N3)c1,-0.2
Cc1ccc(CN2CCN(C3CSCCSC3)CC2CCO)cc1 (stereo not given),0.0
O=C1N(Cc2cccc(Cl)c2)C[C@@H]2C[C@@H](c3cccc4ncccc34)N3CCC[C@@]123,-2.1
Cc1ccc(C)c(Cn2c(=O)n(-c3ccc(CC(=O)NCc4ccco4)cc3)c(=O)c3sccc32)c1,-1.0
N#CCCN(C(=O)COC(=O)CCc1ccccc1)c1ccccc1,-1.1
COc1ccc(C(=O)OCC(=O)Nc2nc3c(F)c(F)c(F)cc3s2)cc1OC,4.3
C=CCNC(=S)N/N=C/c1ccc(C)c([N+](=O)[O-])c1,-0.6
O=C(C1CCC(Cn2c(=S)[nH]c3ccccc3c2=O)CC1)N1CCN(c2ccccn2)CC1 (stereo not given),-0.9
Cc1cccc(-c2nsc(SCC(=O)NCc3ccc4c(c3)OCO4)n2)c1,-1.3
O=C(CSc1ccccc1)N1CCN(S(=O)(=O)c2ccccc2F)CC1,2.6
CCCOc1ccc(N2C(=O)CC(N3CCC(c4nncn4CC)CC3)C2=O)cc1 (stereo not given),-1.2
